Screening data: PubChem, Broad Institute
FGF22 binding: binders of recombinant human FGF22 by thermal shift | Q9HCT0 | SYPRO orange fluorescence; percent of sucrose octasulfate shift, DMSO zero | calls only at 9.99 µM | 340,000 compounds, 1.5% hits | AID 651658;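 active = melting point raised past a set limit in the mean and every replicate; inconclusive = no clear call; three in four hits are not shown here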
Target sequence (Q9HCT0 whole entry, looked up): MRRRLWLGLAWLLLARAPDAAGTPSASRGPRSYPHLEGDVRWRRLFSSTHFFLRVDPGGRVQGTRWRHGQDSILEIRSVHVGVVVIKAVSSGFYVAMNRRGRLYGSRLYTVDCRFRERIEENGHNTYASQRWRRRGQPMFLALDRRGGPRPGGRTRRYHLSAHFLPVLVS
AF4-AF9 inh: inhibitors of human MLL-AF4/AF9 interaction; P42568; AlphaScreen, biotin-AF4 peptide binding to FLAG-AF9; inhibition, % at 10 µM; 350,000 compounds, 0.47% hits; AID 651704;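 active = every replicate reaching a set inhibition limit, whatever the replicate mean, cut at about 25% in these data; inconclusive = mean inhibition reaches that limit but some replicates miss it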;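 note: 0% = plate neutral control median and 100% = total signal loss; the record names both 10 and 1 µM as test concentration; the first replicate is given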
Target sequence (P42568 whole entry, looked up): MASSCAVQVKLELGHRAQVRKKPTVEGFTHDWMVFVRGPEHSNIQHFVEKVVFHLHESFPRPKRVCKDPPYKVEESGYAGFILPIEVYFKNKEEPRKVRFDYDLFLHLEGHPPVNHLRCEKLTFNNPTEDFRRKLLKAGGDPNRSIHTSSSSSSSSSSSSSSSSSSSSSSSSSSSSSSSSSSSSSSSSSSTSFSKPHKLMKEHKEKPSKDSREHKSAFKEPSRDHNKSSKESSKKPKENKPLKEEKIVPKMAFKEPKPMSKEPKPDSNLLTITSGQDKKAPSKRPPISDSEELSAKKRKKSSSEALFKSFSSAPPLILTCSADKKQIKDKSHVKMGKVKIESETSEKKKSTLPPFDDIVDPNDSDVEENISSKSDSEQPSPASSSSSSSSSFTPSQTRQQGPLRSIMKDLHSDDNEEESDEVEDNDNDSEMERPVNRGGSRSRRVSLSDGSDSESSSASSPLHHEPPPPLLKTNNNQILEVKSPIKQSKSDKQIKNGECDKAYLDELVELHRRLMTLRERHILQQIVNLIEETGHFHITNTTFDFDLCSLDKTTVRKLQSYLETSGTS
Ecoli rRNA inh: inhibits bacterial ribosomal RNA function over humanized ribosomes; 350,000 compounds, 1.6% hits; GFP signal change (wild-type ribosome), % (no concentration beside the values); AID 720706; E. coli WT GFP vs humanized-ribosome RFP mutants, fluorescence, 24 h; hits give low values; DMSO median 0, no signal -100;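 active = significant combined selectivity score with lowered wild-type GFP, culture density cut under 30%, mutant RFP and density less affected; inactive = any of these conditions unmet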; note: one replicate is shown; some compounds called inactive have numbers as strong as hits
Ecoli rRNA inh OD600: further read-out of Ecoli rRNA inh, marked with its call; OD600 change, %; measured here: OD600 growth;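 optical density of the mix in the first replicate; 0 = DMSO median and -100 = no signal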
Ecoli rRNA inh RFP: second read-out of Ecoli rRNA inh, no call of its own (marks repeat the call); RFP signal change, %; measured here: RFP humanized mutant strains;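 first replicate; 0 = DMSO median and -100 = no signal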
* hit, by the source's call; i = inactive; ? = inconclusive; & = joins results of further samples.

entry	canonical_smiles	FGF22 binding	AF4-AF9 inh	Ecoli rRNA inh	Ecoli rRNA inh OD600	Ecoli rRNA inh RFP
1	COc1cccc(S(=O)(=O)N[C@H]2CC[C@@H](CC(=O)NCc3ccc(F)cc3)O[C@H]2CO)c1	i	-1.0	1	2	1.1
2	CC(=O)N(C)C[C@H]1Oc2cc(C#Cc3cccc(F)c3)ccc2S(=O)(=O)N([C@H](C)CO)C[C@H]1C	i	1.3	-6	-25	6.1
3	O=C(Nc1ccccc1)N[C@H]1CC[C@@H](CCNC(=O)c2ccccc2F)O[C@@H]1CO	i	0.9	5	6	-2.5
4	CC(C)Oc1cc(F)ccc1-c1cc(C(=O)NCc2cccnc2)[nH]n1	i	-1.8	-7	-19	4.0
5	O=c1ccc2c(ccc3ncccc32)o1	i	-4.6	4	16	-6.6
6	COc1ccc(-c2cn(CC[C@@H]3CC[C@@H](NC(=O)Cc4ccccn4)[C@@H](CO)O3)nn2)cc1	i	0.9	-1	4	-5.7
7	C[C@@H]1CCCCO[C@H](CN(C)Cc2ccc(C(F)(F)F)cc2)[C@H](C)CN([C@@H](C)CO)C(=O)c2cc(NS(=O)(=O)c3cccs3)ccc2O1	i	4.8	-9	-44	20
8	CN(C)c1ccc(-c2csc(C(C)(O)c3ccc(F)c(F)c3)n2)cc1 (centres undefined)	i	16	-58	-74	-19
9	CO[C@H](CN(C)S(=O)(=O)c1ccc(F)cc1)[C@H](C)CN(Cc1ccccc1Cl)[C@H](C)CO	i	0.6	-3	-3	1.4
10	C[C@@H]1CCCCO[C@@H](CN(C)S(=O)(=O)c2ccc(F)cc2)[C@H](C)CN([C@@H](C)CO)C(=O)c2cc(NS(=O)(=O)c3ccccc3)ccc2O1	i	1.9	-3	-2	-3.5
11	C[C@@H]1CCCCO[C@@H](CN(C)C(=O)Cc2ccccc2)[C@@H](C)CN([C@@H](C)CO)C(=O)c2cc(NS(C)(=O)=O)ccc2O1	i	-6.3	-2	5	0.1
12	Cc1noc(C)c1NC(=O)N(C)C[C@H]1Oc2ccc(NC(=O)Cc3cn(C)c4ccccc34)cc2C(=O)N([C@H](C)CO)C[C@H]1C	i	-11	2	2	1.2
13	CCCNC(=O)C[C@H]1CC[C@@H]2[C@H](COc3ccc(NC(=O)C4CCCC4)cc3C(=O)N2C)O1	i	-0.1	2	2	-1.2
14	Cc1ccc(S(=O)(=O)N(C)C[C@H]2Oc3cc(C#Cc4ccncc4)ccc3S(=O)(=O)N([C@H](C)CO)C[C@@H]2C)cc1	i	0.3	-2	3	5.8
15	Cc1ccc(-c2ccc3c(c2)O[C@@H](CN(C)C(=O)CN(C)C)[C@H](C)CN([C@H](C)CO)S3(=O)=O)cc1	i	-1.6	4	2	-0.9
16	C[C@@H]1CN([C@@H](C)CO)S(=O)(=O)c2ccc(-c3ccc(C(=O)N(C)C)cc3)cc2O[C@@H]1CN(C)Cc1ccccc1C(=O)O	i	1.2&3.5	7&2	10&12	2.9&-1.9
17	CC(=O)c1sc(NC(=O)CCc2ccccc2)nc1C	i	-2.2	14	10	3.0
18	C[C@@H]1CN([C@@H](C)CO)S(=O)(=O)c2ccc(-c3cccc(C#N)c3)cc2O[C@H]1CN(C)C(=O)Nc1ccccc1F	i	-1.2	-10	-14	1.2
19	COc1cccc(CN(C)C[C@@H]2OCc3ccccc3-c3ccccc3C(=O)N([C@@H](C)CO)C[C@@H]2C)c1	i	-3.7	-1	-18	5.4
20	CCOC(=O)C(=O)N(C)c1c(CC)nc2c(OCc3ccccc3OC)cccn12	i	2.3	7	12	-0.4
21	CCOC(=O)N(C)c1c(CC)nc2c(OCCOc3ccccc3)cccn12	i	1.6	12	6	1.4
22	CC=Cc1ccc2n(c1=O)C[C@H]1[C@H](CO)[C@@H](C(=O)NCC3CCCCC3)N(C(=O)CC)[C@@H]21 (mixture of isomers)	i	0.8	0	-4	-0.5
23	CC(=O)N1CC2(C1)[C@@H](c1ccc(-c3ccc(F)cc3)cc1)[C@@H](CO)N2C(C)=O	i	-17	-1	2	-0.2
24	Cc1ccccc1S(=O)(=O)N1C[C@H](O)COC[C@H]2O[C@@H](CC(=O)N3CCC(Cc4ccccc4)CC3)CC[C@@H]21	i	5.3	-22	-49	-0.6

Among those listed so far, these contain two or more sulfur atoms.
entry	canonical_smiles	FGF22 binding	AF4-AF9 inh	Ecoli rRNA inh	Ecoli rRNA inh OD600	Ecoli rRNA inh RFP
7	C[C@@H]1CCCCO[C@H](CN(C)Cc2ccc(C(F)(F)F)cc2)[C@H](C)CN([C@@H](C)CO)C(=O)c2cc(NS(=O)(=O)c3cccs3)ccc2O1	i	4.8	-9	-44	20
10	C[C@@H]1CCCCO[C@@H](CN(C)S(=O)(=O)c2ccc(F)cc2)[C@H](C)CN([C@@H](C)CO)C(=O)c2cc(NS(=O)(=O)c3ccccc3)ccc2O1	i	1.9	-3	-2	-3.5
14	Cc1ccc(S(=O)(=O)N(C)C[C@H]2Oc3cc(C#Cc4ccncc4)ccc3S(=O)(=O)N([C@H](C)CO)C[C@@H]2C)cc1	i	0.3	-2	3	5.8

Next section
entry	canonical_smiles	FGF22 binding	AF4-AF9 inh	Ecoli rRNA inh	Ecoli rRNA inh OD600	Ecoli rRNA inh RFP
25	C[C@H]1CN([C@@H](C)CO)S(=O)(=O)c2ccc(-c3cccnc3)cc2O[C@@H]1CN(C)Cc1ccccn1	i	4.5	-1	-9	-0.3
26	CCc1cc(-c2nnn(CCC3COCCO3)c2CC)cc(CC)c1-c1cn(CCc2c[nH]c3ccccc23)nn1 (centres undefined)	i	0.0	1	-9	2.0
27	Cc1ccc(S(=O)(=O)N(C)C[C@@H]2Oc3ccc(NS(=O)(=O)c4cccs4)cc3CC(=O)N([C@H](C)CO)C[C@H]2C)cc1	i	0.2	-4	-5	1.9
28	CO[C@@H]1CN(C)C(=O)c2cc(NC(=O)Nc3cccc(F)c3)ccc2OC[C@H](C)N(C(=O)Nc2c(C)noc2C)C[C@H]1C	i	3.4	-6	-4	3.0
29	Nc1nc2ccc(Cl)cc2cc1C(=O)NCCCN1CCOCC1	i	-1.1	13	5	3.0
30	COC(=O)Cn1c2ccccc2c(=O)n1C(C)C	i	-1.5	6	11	-1.4
31	O=C(/C=C/[C@H]1O[C@@H](n2ccc(=O)[nH]c2=O)[C@H](O)[C@@H]1O)NC1CCN(Cc2ccccc2)C1 (some centres undefined)	i	0.8	-2	4	-2.4
32	COc1ccc2c3c([nH]c2c1)[C@@H](CO)N(C(=O)c1ccccc1)CC31CCN(C(=O)NC(C)C)CC1	i	2.2	2	14	-2.2
33	C[C@@H]1CN([C@H](C)CO)S(=O)(=O)c2ccc(C#C[C@@H](C)O)cc2O[C@H]1CN(C)Cc1cncnc1	i	5.6	4	5	-2.3
34	O=C(C1CC1)N1C[C@H]2[C@@H](c3ccccc31)[C@@H](CO)N2C(=O)c1ccccc1	i	0.5	3	4	-2.9
35	O=C(NCc1ccccc1)[C@@H]1CCCN1C(=O)[C@H]1CCCN1C(=O)c1ccc(F)c(F)c1	i	-8.4	11	10	0.6
36	Cc1ccc2nc3n(c(=O)c2c1)-c1cc2ccccc2cc1C(=O)NC3Cc1ccccc1 (centres undefined)	i	-0.2	8	51	3.1
37	COc1ccc(NC(=O)N(C)C[C@@H]2Oc3cc(C#CCC(C)C)ccc3S(=O)(=O)N([C@@H](C)CO)C[C@H]2C)cc1	i	6.2	-7	-13	3.1
38	O=C(C[C@@H]1CC[C@@H](NC(=O)C2CC2)[C@@H](CO)O1)NCCCN1CCOCC1	i	-1.4	-2	1	-1.8
39	CCCN(C)C[C@H]1OCCCC[C@@H](C)Oc2ccc(N(C)C)cc2C(=O)N([C@@H](C)CO)C[C@H]1C	i	?	0	-2	-2.5
40	C[C@@H]1CN([C@H](C)CO)C(=O)c2cc(NS(=O)(=O)c3ccc(F)cc3)ccc2O[C@H]1CN(C)C(=O)NC1CCCCC1	i	-2.0	2	0	-0.8
41	Cc1ccc(C(=O)NCC(=O)OCC(=O)N(CC(C)C)c2c(N)n(Cc3ccccc3)c(=O)[nH]c2=O)s1	i	-5.6	20	14	2.1
42	COCC(=O)N(C)C[C@@H]1Oc2cc(C#CC(C)C)ccc2S(=O)(=O)N([C@H](C)CO)C[C@@H]1C	i	-0.6	-2	-3	-2.2
43	O=S(=O)(N[C@@H]1CC[C@H](CCn2cc(C3CC3)nn2)O[C@H]1CO)c1ccc(F)cc1	i	-1.9	1	2	1.0
44	COc1ccc(NC(=O)N(C)C[C@@H]2OCCCC[C@H](C)Oc3ccc(NS(=O)(=O)c4cccs4)cc3C(=O)N([C@H](C)CO)C[C@@H]2C)cc1	i	-9.6	-5	-12	-1.0
45	Clc1ccc(Cn2ncc3c(N4CCN(c5ccccc5)CC4)ncnc32)cc1	i	0.1	4	8	1.0
46	Cc1noc(C)c1S(=O)(=O)Nc1ccc2c(c1)C(=O)N([C@@H](C)CO)C[C@@H](C)[C@H](CN(C)C(=O)Nc1ccc3c(c1)OCO3)OCCCC[C@@H](C)O2	i	3.6	1	-10	-3.3
47	Cc1ccc(S(=O)(=O)N[C@@H]2CC[C@H](CCNC(=O)C3CCCCC3)O[C@H]2CO)cc1	i	-0.4	2	12	1.4
48	CC(NS(=O)(=O)c1ccc2[nH]c(=O)[nH]c2c1)c1ccc(F)cc1 (centres undefined)	i	-1.0	6	22	-2.3

Look-ups from the results shown:
For Ecoli rRNA inh, no. 4 has the entry -7
For Ecoli rRNA inh RFP, no. 16 has the entry 2.9&-1.9
For Ecoli rRNA inh, no. 25 has the entry -1
For AF4-AF9 inh, no. 22 has the entry 0.8
For Ecoli rRNA inh, no. 20 has the entry 7

Next structures.
entry	canonical_smiles	FGF22 binding	AF4-AF9 inh	Ecoli rRNA inh	Ecoli rRNA inh OD600	Ecoli rRNA inh RFP
49	C[C@H]1CN([C@@H](C)CO)S(=O)(=O)c2ccc(-c3ccccc3F)cc2O[C@H]1CN(C)C	i	-3.1	0	7	-2.8
50	C[C@@H]1CN([C@@H](C)CO)C(=O)c2cccc(NC(=O)C3CC3)c2O[C@@H]1CN(C)CC1CCCCC1	i	-3.8	4	7	-0.9
51	C[C@H](CO)N1C[C@H](C)[C@H](CN(C)C(=O)NC2CCCC2)Oc2ncc(-c3cccc(F)c3)cc2C1=O	i	-1.0	2	9	-1.4
52	Cc1ccccc1OCCC(=O)Nc1ccc(S(=O)(=O)N2CCCC2)cc1	i	0.3	-10	-24	1.7
53	O=C(NC[C@H]1[C@H](c2ccccc2)[C@@H](CO)N1C(=O)Cc1ccncc1)C1CCC1	i	-0.2	-2	3	-1.5
54	C[C@@H]1CN([C@H](C)CO)C(=O)Cc2cc(NS(=O)(=O)c3ccc(Cl)cc3)ccc2O[C@H]1CN(C)S(=O)(=O)c1ccc(F)cc1	i	0.8	1	-5	-0.8
55	O=C(CC1CC1)N1[C@H](CO)[C@H]2c3ccccc3N(S(=O)(=O)c3ccccc3)C[C@H]21	i	0.9	-7	-2	-0.5
56	COc1ccc(NC(=O)N(C)C[C@@H]2Oc3c(NS(C)(=O)=O)cccc3C(=O)N([C@H](C)CO)C[C@@H]2C)cc1	i	0.1	6	3	2.0
57	COc1ccc(OC)c(CN2CCN(C(=O)c3cc(S(=O)(=O)N4CCOCC4)ccc3C)CC2)c1	i	3.8	4	4	-0.9
58	C[C@@H]1CCCCO[C@H](CN(C)Cc2ccc(Cl)c(Cl)c2)[C@@H](C)CN([C@H](C)CO)C(=O)c2cc(NC(=O)c3ccccc3)ccc2O1	i	-0.3	0	-6	-1.8
59	CC(=O)NC[C@@H]1[C@H](c2ccccc2)[C@@H](CO)N1C(=O)Cc1cccnc1	i	0.0	1	-1	-0.5
60	CC1=C(C(=O)N2CCOCC2)CC(CC(=O)NCc2cccc3ccccc23)C(=O)N1CCCN1CCCC1=O (centres undefined)	i	-1.1	9	9	-0.4
61	C[C@@H]1CN([C@H](C)CO)C(=O)c2cc(NC(=O)Nc3ccc4c(c3)OCO4)ccc2O[C@H]1CN(C)S(C)(=O)=O	i	-2.1	1	5	1.2
62	CCCNC(=O)N(C)C[C@H]1Oc2cc(C3=CCCCC3)ccc2S(=O)(=O)N([C@@H](C)CO)C[C@@H]1C	i	3.9	0	-7	-4.3
63	COc1ccc2c3c([nH]c2c1)[C@@H](CO)N(C(C)=O)CC31CCN(C(C)=O)CC1	i	0.3	6	19	-3.0
64	CN1OC[C@@H]2CN3C(=O)N(c4cccc5ccccc45)c4ccccc4[C@@H]3C[C@@H]21	i	3.4	4	-7	3.9
65	C[C@@H]1CN([C@H](C)CO)C(=O)c2ccccc2-c2ccccc2CO[C@@H]1CN(C)S(C)(=O)=O	i	-0.7	1	0	-1.9
66	O=C(c1ccc(F)cc1)N1CC[C@@H]2[C@H](CO)Nc3ccc(C#Cc4ccc(F)cc4)cc3[C@@H]21	i	-9.8	-2	11	-1.2
67	CCCN1C[C@H](C)[C@H](OC)CN(C)C(=O)c2cc(NC(=O)NC3CCCCC3)ccc2OC[C@H]1C	i	-0.9	2	-1	-0.5
68	C[C@H](CO)N1C[C@H](C)[C@@H](CN(C)Cc2ccccc2)Oc2ncc(C3=CCCC3)cc2C1=O	i	4.2	-2	3	-2.7
69	COc1ccc2c3c(n(C)c2c1)[C@@H](CO)N(C(=O)C1CC1)CC31CN(C(=O)C2CCOCC2)C1	i	-7.4	0	6	-5.3

The list is partial. The share of hits here may be higher or lower than overall.
